# Bioassay records: PubChem, ICCB-Longwood Screening Facility, Harvard Medical School
# HCMV UL50-53 inh – inhibitors of HCMV UL50-UL53 interaction, biochemical, HTRF. HCMV UL50-UL53 nuclear egress complex (human cytomegalovirus). normalized percent inhibition. inhibition, % (no concentration beside the values). hit rate 0.15% among 190,000;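 active = both replicates at 50% or more, plus weaker picks with an unusually low signal ratio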;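 note: stock transfer was 100 nL into about 20 µL; 0% = negative control wells and 100% = wells with untagged competitor protein; inactives centre near -12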
# GIV-Gai inh – inhibitors of GIV peptide binding to Galpha-i3, primary screen, biochemical, fluorescence polarization, FITC-GIV GBA peptide, rat Galphai3; Guanine nucleotide-binding protein G(i) subunit alpha-3 (Rattus norvegicus), P08753; 90 min; stronger effect = lower value; scaled: aluminum fluoride 0%, vehicle 100%; percent of control (FP), % (no concentration beside the values); hit rate 0.42% among 210,000; AID 1224905, 2016;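 active = replicate mean at 85% of control or lower, very high polarization wells dropped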;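 note: wells of about 15 µL received 100 nL stock; the first replicate is given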
# Target sequence (P08753 whole entry, looked up): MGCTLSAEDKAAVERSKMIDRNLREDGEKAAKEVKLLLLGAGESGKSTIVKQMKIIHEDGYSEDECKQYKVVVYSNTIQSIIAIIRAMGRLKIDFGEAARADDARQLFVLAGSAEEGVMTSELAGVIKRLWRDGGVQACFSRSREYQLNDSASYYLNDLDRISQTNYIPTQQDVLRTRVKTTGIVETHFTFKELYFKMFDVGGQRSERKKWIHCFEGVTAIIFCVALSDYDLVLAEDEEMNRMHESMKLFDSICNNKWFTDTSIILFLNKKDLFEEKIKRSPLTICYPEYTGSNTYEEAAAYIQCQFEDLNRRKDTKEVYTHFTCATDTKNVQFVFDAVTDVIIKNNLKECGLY
# Sa growth inh – S. aureus growth inhibition at 42 and 30 °C, primary screen, LtaS inhibitor project, RN4220, two temperatures. OD600, 20 h, 42 °C; stronger effect = lower value. relative growth, % (no concentration beside the values). hit rate 0.53% among 170,000;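 active = growth at 42 °C up to 50% and 20 or more points under that at 30 °C, or under 10% at both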;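 note: 300 nL library stock went into each well; scaled to the means of positive and negative controls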
# Sa growth inh second temp – further read-out of Sa growth inh, marked with its call; relative growth, %; measured here: growth at 30 °C;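 optical density after 20 h as mean of two plates; 100% = untreated growth and lower means inhibition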
# Active calls of the source: *; . = no result given; & = joins results of further samples. Random draw from the library, and some 0.8% of all compounds hit somewhere here.
SMILES,HCMV UL50-53 inh,GIV-Gai inh,Sa growth inh,Sa growth inh second temp
CCOC(=O)c1ccc(NC(=O)Nc2cc3c(cc2N2CCCCC2)n(CC)c(=O)n3CC)cc1,6,104,116,92
CCCCOC(=O)c1ccc(NC(=O)Cc2coc3ccc(C(C)C)cc23)cc1,-3,105,103,91
CC(C)(CC(=O)O)CC(=O)N1CCCN(c2nccc(C(F)(F)F)n2)CC1,8,110,96,99
COC(=O)C(C)Sc1ncnc2sc(C)c(C)c12 (configuration not stated),-10,.,92,96
O=C(NCc1ccc2c(c1)OCO2)C1CC2C=CC1C2 (configuration not stated),-32,.,86,93
COc1ccc(N=Cc2cn(-c3ccc(OC)cc3)cc2C=Nc2ccc(OC)cc2)cc1,-19,104,102,84
Cc1ccc(S(=O)(=O)NC(=O)c2cccn2C)cc1,-31,.,96,76
Cc1cc(C)cc(OCCCCn2cncn2)c1,-12,99,120,99
Cc1nc(-n2nc(C)c(Cc3ccccc3Cl)c2C)sc1C(=O)Nc1ccccc1F,3,103,109,92
CCOc1ccccc1NC(=O)Cn1c(=O)n(CCCC(=O)NCCc2ccc(C)cc2)c(=O)c2ccccc21,-9,105,117,89
CCCN1c2cccc3cccc(c23)S1(=O)=O,-46,102,110,76
O=C1c2ccccc2C(=O)N1CCCCN1C(=O)c2ccccc2S1(=O)=O,-18,.,76,87
CCOC(=O)c1cc(-c2ccc(OC)cc2)n(CCC(=O)NCCc2ccccc2)c1C,.,101,107,84
O=C(CSc1nnc(Cc2cccs2)n1Cc1ccco1)Nc1ccc(Br)cc1,-9,108,94,74
O=C(NCc1ccc(F)cc1)C(=O)NCC(c1ccc2c(c1)OCO2)N1CCOCC1 (configuration not stated),.,96,122,85
CCOC(=O)c1ccc(-c2ccc(/C=c3\sc4nc5ccccc5n4c3=O)o2)cc1,-18,100,.,.
COCCCNC(=O)c1ccc2c(c1)N=C(C)c1c(C)ccc(C)c1S2,-43,102,88,83
O=C(OCC(=O)c1cccs1)c1ccc2c(c1)S(=O)(=O)c1ccccc1C2=O,-21,.,100,97
CC1CCN(c2nc3c(c(=O)n(C)c(=O)n3C)n2Cc2ccc(Br)cc2)CC1,0,102,.,.
CN(Cc1ccccc1)C(=O)CSc1nnc(-c2cccc(Cl)c2)o1,7,99,100,83
O=C1S/C(=C/c2cc3c(cc2Cl)OCO3)C(=O)N1c1ccccc1,0,98,97,95
Cc1ccc(N(CC#N)C(=O)Cn2cc[n+](C)c2)cc1,4,.,126,103
COc1ccc(-n2cccc2CO)cc1,1,.,95,98
CCN(CC)C(=O)Cn1cnc2onc(-c3ccc(Cl)cc3)c2c1=O,-23,104,.,.
CNc1nc(OC)cc(OC)n1,8,.,106,98
Cc1sc(C)c(S(=O)(=O)N2CCOCC2)c1-c1ccno1,-27,104,.,.
COc1cccc(NC(=O)CSC2=Nc3ccccc3N=C(c3ccc(F)cc3)C2)c1,.,106,78,74
O=S(=O)(NCC(c1ccco1)S(=O)(=O)c1cccs1)c1ccc(Cl)cc1 (configuration not stated),.,99,145,87
CCCCSC1=NS(=O)(=O)c2ccccc2N1CCCC,-12,102,91,82
OC(CN1CCN(c2nc3ccccc3s2)CC1)c1ccc(Cl)cc1 (configuration not stated),-16,104,101,91
COc1ccc(NC(=O)CSC2=Nc3ccccc3C3=NC(CCC(=O)NCCc4ccccc4)C(=O)N23)cc1 (configuration not stated),.,100,77,69
O=C(Nc1cccc(C(F)(F)F)c1)C1CC(c2ccccc2O)=NO1 (configuration not stated),-25,107,144,88
Cc1ccc(S(=O)(=O)c2nc(-c3cccs3)oc2SC(C)C)cc1,-16,102,94,95
O=P(O)(O)C(O)(Cn1ccnc1)P(=O)(O)O,-9,110,99,96
CC1(C)Cc2nc3sc4c(NCC5CCCO5)ncnc4c3cc2CO1 (configuration not stated),.,106,100,97
O=C(Cn1ncc2c(=O)oc3ccccc3c21)N(Cc1ccco1)C1CCCCC1,2,101,92,101
CCOc1ccc(NC(=O)Cc2csc(COc3cccc(C)c3)n2)cc1,-26&-21,102&110,108,91
COc1cc(OC)cc(C(=O)N2CCC(C(=O)NC(C)C)CC2)c1,-3,104,95,82
CCCCCOc1ccc(Cn2c(=O)oc3ccccc32)cc1,12,100,98,92
CN1C(=O)Cc2cc(S(=O)(=O)CCC(=O)N3CCN(c4ccccc4F)CC3)ccc21,-15,109&99,92,93
CCN(CC)CCCNS(=O)(=O)c1ccc2c(c1)N(C(C)=O)CCCS2,4,104,.,.
CS(=O)(=O)c1cccc(Cl)n1,3,.,96,98
Nc1ccc(S(=O)(=O)C(F)(F)F)cc1,.,100,77,79
O=S(=O)(NCC1OCCc2ccccc21)c1ccccc1 (configuration not stated),5,104,116,115
CCc1ccc(S(=O)(=O)c2cn(C)c3cc(N4CCOCC4)c(F)cc3c2=O)cc1,.,106,109,86
CCCCNC(=O)Cn1c(=S)[nH]c2c([nH]c3ccc(OC)cc32)c1=O,-20,105,100,87
COc1ccccc1OCCn1cc(C(=O)c2cccs2)c2ccccc21,19,99,96,97
Brc1ccc(-c2cnc(-c3ccccc3)o2)cc1,9,.,77,98
CCOC(=O)/C(=N\O)C1=CSC2=NNC(C)(C)N12,-95,105,102,83
CCOC(=O)c1cc(OC(=O)c2cccnc2)n(-c2ccccc2)n1,8,112,86,87
CCC(C)(NC(C)=O)C(=O)NC1CCCC1 (configuration not stated),-1,98,103,90
CCC(Sc1nc(-c2ccccc2)c(-c2ccccc2)[nH]1)C(=O)O (configuration not stated),.,113,91,80
O=C(Nc1cccnc1)C(Cc1ccccc1)N1C(=O)c2ccccc2C1=O (configuration not stated),-38,100,106,91
CN(C)C(=O)CSc1ccccc1C(=O)OCC(=O)NC1(C#N)CCCC1,-20,.,77,87
COc1ccc2[nH]cc(CCNC(=O)c3c(-c4ccccn4)noc3C)c2c1,-10,96,.,.
CC(=O)Nc1cccc(OCCCNS(=O)(=O)c2cn(C)c(C)n2)c1,-8,104,103,99
Cc1cnc(C(=O)OCC(=O)N2CC3(C)CC2CC(C)(C)C3)cn1 (configuration not stated),-10,.,103,97
COC(=O)CNC(=O)c1cc2c(=O)[nH]c3ccccc3c2s1,.,97,97,96
COc1ccc(C2C3=C(CCCC3=O)Nc3onc(C)c32)c(OC)c1 (configuration not stated),-16,105,.,.
O=P(O)(c1ccccc1)c1ccccc1,-22,99,105,99

# New compounds follow.
SMILES,HCMV UL50-53 inh,GIV-Gai inh,Sa growth inh,Sa growth inh second temp
CC(C)C(=O)NN=C1CCC(=NNC(=O)C(C)C)CC1,-11,101,100,87
Cc1cc(NC(=O)NC(=O)c2cccs2)n[nH]1,1,.,108,90
CCNc1nc(F)cc(F)n1,-8,107,96,93
COc1cc(-c2nc3ccccc3c(=O)n2NC(=O)c2ccccc2Br)cc(OC)c1OC,-12,106,.,.
CC(Oc1ccc2oc3ccccc3c2c1)C(=O)NC(N)=O (configuration not stated),-12,.,70,95
CNC(=O)CN(c1cccc2ccccc12)S(C)(=O)=O,-45,104,91,83
Cc1ccc2cc(CCNC(=O)c3ccc(S(=O)(=O)N(C)C)cc3)c(=O)[nH]c2c1,.,98,101,90
Cc1nn(C(C)C(=O)Nc2ccccc2Br)c(=O)c2nn(-c3ccccc3)c(C)c12 (configuration not stated),8,104,.,.
Cc1ccccc1CN(CCO)Cc1ccccc1,12,104,93,106
CC(C)NC(=O)CSc1cc(-c2cccnc2)c2c(c1C#N)CCCC2,8,.,104,82
CC(C)CNC(=O)C1CCN(c2ccc(-c3ccccc3)nn2)CC1,-40,103,.,.
COCCCNc1ncnc2c1nnn2C,.,91,116,91
CCOC(=O)c1c(N/C=C(\C#N)c2nc(-c3cccs3)cs2)sc2c1CCC2,-16,118,108,93
O=C(NCc1ccccc1Cl)c1ccc(Cn2c(=O)c3cccn3c3cccnc32)cc1,.,111,84,86
COc1cccc(COC(=O)c2ccc(-c3nnn(Cc4cccc(OC)c4)n3)cc2)c1,9,107,106,97
CCOC(=O)c1cc(S(=O)(=O)N(C)CC(=O)NC(C)CC)cn1C (configuration not stated),-12,107,.,.
O=C(c1cnc2ccc(Cl)cc2c1Cl)N1CCOCC1,-36,100,93,85
CC(=O)N1CCc2c(sc3nc(SCc4cccc(F)c4)n(Cc4ccco4)c(=O)c23)C1,-28,103,48,38
CCOC(=O)c1sc2nc(CC(=O)OC)nc(N3CCCC3)c2c1C,-8,101,.,.
Nc1c2c(nc3ccn(-c4ccccc4)c(=O)c13)CCCCC2,.,102,93,87

# Gathered by group: the entries above with two or more sulfur atoms
SMILES,HCMV UL50-53 inh,GIV-Gai inh,Sa growth inh,Sa growth inh second temp
COC(=O)C(C)Sc1ncnc2sc(C)c(C)c12 (configuration not stated),-10,.,92,96
O=C(CSc1nnc(Cc2cccs2)n1Cc1ccco1)Nc1ccc(Br)cc1,-9,108,94,74
O=C(OCC(=O)c1cccs1)c1ccc2c(c1)S(=O)(=O)c1ccccc1C2=O,-21,.,100,97
Cc1sc(C)c(S(=O)(=O)N2CCOCC2)c1-c1ccno1,-27,104,.,.
O=S(=O)(NCC(c1ccco1)S(=O)(=O)c1cccs1)c1ccc(Cl)cc1 (configuration not stated),.,99,145,87
CCCCSC1=NS(=O)(=O)c2ccccc2N1CCCC,-12,102,91,82
Cc1ccc(S(=O)(=O)c2nc(-c3cccs3)oc2SC(C)C)cc1,-16,102,94,95
CCN(CC)CCCNS(=O)(=O)c1ccc2c(c1)N(C(C)=O)CCCS2,4,104,.,.
CCOC(=O)c1c(N/C=C(\C#N)c2nc(-c3cccs3)cs2)sc2c1CCC2,-16,118,108,93
CC(=O)N1CCc2c(sc3nc(SCc4cccc(F)c4)n(Cc4ccco4)c(=O)c23)C1,-28,103,48,38

# (cont.)
SMILES,HCMV UL50-53 inh,GIV-Gai inh,Sa growth inh,Sa growth inh second temp
COC(=O)c1ccc(NC(=O)c2nc(-c3ccc(Cl)cc3)n3c2CCCCC3)cc1,.,108,117,78
O=c1c2cnn(-c3cccc(Cl)c3)c2ncn1CCC1OCCO1,-34,109,90,84
CN(C)C1(CNCC(=O)Nc2ccc(Cl)cc2Cl)CCCCC1,-8,.,88,95
Cc1cc(Cl)ccc1NS(=O)(=O)c1c(C(=O)N2CCCCCC2)c(C)n(C)c1C,.,98,85,72
CC1CC(C)CN(S(=O)(=O)c2ccc3nnn(O)c3c2)C1 (configuration not stated),9,.,89,100
CC1(C)Cc2c(sc3ncn4nc(-c5ccccc5Cl)nc4c23)C(C)(C)N1,3,104,.,.
COc1ccc(-n2[nH]c(C)c(C(C)=NCCc3ccc(S(N)(=O)=O)cc3)c2=O)cc1,-28,103,87,85
CCOC(=O)N1CCC2(CC1)N=C(c1ccccc1)CC(c1ccccc1O)N2 (configuration not stated),-24,97,.,.
Cc1c(C(=O)NCCc2ccccc2)oc2ccc(S(=O)(=O)N3CCC(C)CC3)cc12,-25,100,.,.
O=C(c1ccc(Cl)cc1)N1CCC(n2nnc3ccccc32)CC1,-6,103,107,95
Cc1cc(C)nc(Sc2c(C)n[nH]c2C)n1,-29,.,110,87
O=C(CCCn1c(=O)[nH]c2ccccc2c1=O)NCc1ccccc1Cl,.,106,102,96
Cc1cc(C)cc(NC(=O)CSCc2cc(=O)c3ccc(C)c(C)c3[nH]2)c1,.,101,103,78
CC(C)OCCCNC(=O)Cn1ccc2cc(S(=O)(=O)N3CCCCCC3)ccc21,.,97,101,99
COc1ccc2[nH]cc(CCNC(=O)CN3C(=O)c4cccnc4Sc4ccccc43)c2c1,7,108,.,.
O=C(NCc1cccc(F)c1)C1=Cc2cc(Br)ccc2OC1,.,100,88,96
CCn1c(/C=C/c2c(C)n(CC)c3ccccc23)nc2ccccc2c1=O,-11,92,.,.
COc1cccc(-c2cc(C(=O)NCc3ccccc3)no2)c1,-8,106,110,96
CN1C(C(=O)Nc2ccc(OC(F)(F)F)cc2)=CC(c2ccc3c(c2)OCO3)=NS1(=O)=O,-28,55*,92,99
Cc1ccc(NC(=O)CCn2cccn2)cc1Cl,.,97,70,87
CC(C)CN(CC(C)C)S(=O)(=O)c1cccs1,0,104,101,98
CN(C)C(=S)SCCCn1c(=O)[nH]c2ccccc21,-11,.,86,72
NC(=O)C1CCN(C(=O)CN2CCC(Cc3ccccc3)CC2)CC1,-4,105,92,99
CS(=O)(=O)N(Cc1ccc(C(=O)O)cc1)c1cccc(Cl)c1Cl,-12,.,97,90
CCOC(=O)c1nc(NC(C)(C)C)c2c(-c3ccc(F)cc3)noc2n1,-14,105,.,.
CCCc1cc(=O)[nH]c(Nc2cc(C)ccc2OC)n1,-16,101,99,86
COc1ccccc1Nc1nn2c(=O)c3ccc(C(=O)NCCCOC(C)C)cc3nc2s1,.,97,126,83
CCc1ccc2[nH]c(C(=O)NCc3ccccc3)cc2c1,-2,109,123,91
COc1ccc(OC)c(NC(=O)CN(c2ccccc2OC)S(=O)(=O)c2ccc(C)cc2)c1,-18,106,102,85
O=C(O)c1ccccc1C1=Nc2ccc(O)cc2Oc2cc(O)ccc21,-27,-91*,81,81
COCCNS(=O)(=O)c1ccc(OC)c(-c2noc(C(C)(C)C)n2)c1,0,111,.,.
